# Bioassay records (PubChem BioAssay)
# Mtb H37Rv: Mycobacterium tuberculosis H37Rv growth inhibition, putative kinase inhibitor library, confirmatory dose response (AID 2842); M. tuberculosis H37Rv growth inhibition; higher % means a stronger effect; some inactives read as strong as hits; inhibition, % at 10 µg/mL, or IC90 in µg/mL where a hit was titrated; actives 5.2% (n = 24,000);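 active means confirmed in a dose series; about a fifth of its hits are not listed in these tables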;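 further: bacteria incubated one week before Alamar blue readout; 0% = bacteria only wells and 100% = bacteria with high antibiotic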
# Starred values were filed as active, the others as inactive. The list is partial; count on the stated rates, not on these rows.
canonical_smiles,Mtb H37Rv
COc1ccc(Cl)c2c(=O)c(CN3CCN(Cc4ccc5c(c4)OCO5)CC3)c(C)[nH]c12,-1.8%
Cc1ccc(C)c(NC(=O)CSc2nc(N)c(NC(=O)c3ccc(Br)cc3)c(=O)[nH]2)c1,1.0%
CCn1c2c(c(=O)[nH]c1=O)C(c1ccc(F)cc1)C1=C(CC(C)(C)CC1=O)N2 (stereo unspecified),-11.1%
CCOC(=O)c1c(NC(=S)NC(=O)c2ccc(C(=O)OC)cc2)sc(OC(=O)CC)c1C,6.6%
CCOC(=O)c1sc2nc(-c3ccccc3)cc(-c3ccccc3)c2c1N=Cc1cc(I)cc(I)c1O,-1.3%
CC(C)(C)c1ccc(C(=O)Nc2nnc(-c3cccnc3)o2)cc1,0.84µg/mL*
COc1ccc(NC(=O)Cn2c(=O)c3cc(Cl)ccc3n3nncc23)cc1,-8.1%
Cc1ccc(C)c(-c2nnc(NC(=O)c3ccccc3Cl)o2)c1,3.12µg/mL*
Nc1cc(=O)[nH]c2nnc(SCc3ccc(C(=O)c4ccccc4)cc3)n12,-10.0%
Nc1ncnc2c1CCC2,1.8%
CC1CCc2sc(NC(=O)c3ccccc3Br)c(C(N)=O)c2C1 (stereo unspecified),10.9%
O=C(COc1coc(CN2CCc3ccccc32)cc1=O)Nc1ccccc1F,-0.9%
CCc1ccc(S(=O)(=O)c2cn(Cc3ccc(C)cc3)c3ccc(OC)cc3c2=O)cc1,4.7%
COC(=O)c1ccc(NC(=O)CSc2nnc3[nH]c(=O)c(C)c(C)n23)cc1,-11.8%
CC(=O)Nc1ccc2nc(NC(=O)c3ccccc3Oc3ccccc3)sc2c1,29.5%
CCOC(=O)c1nn(-c2ccc(OC)cc2)c(=O)c2c(NC(=O)c3ccc(S(=O)(=O)N4CCCCC4)cc3)scc12,-8.3%
CC1C(=O)N2CCCc3cc(S(=O)(=O)NCc4ccc(F)cc4)cc1c32 (stereo unspecified),-3.6%
COc1ccc(-n2nnc(-c3nc(-c4ccncc4)no3)c2N)cc1Cl,-0.7%
COc1ccccc1C(=O)Nc1nnc(-c2ccc(F)cc2)o1,34.9µg/mL*
COc1cccc(-c2nnc(NC(=O)c3ccc(Cl)cc3)o2)c1,33.8µg/mL*
CCc1ccc(-c2csc(NC(=O)c3ccc(C(C)=O)cc3)n2)cc1,8.1%
Cc1ccc(N2C(=O)C3N=NN(CC(=O)Nc4cccc(F)c4)C3C2=O)cc1C (stereo unspecified),-12.0%
CCS(=O)(=O)c1ccc(C(=O)Nc2nc3ccc(C(C)C)cc3s2)cc1,4.4%
CCOC(=O)c1c(NC(=S)Nc2ccc(OC)cc2)sc2c1CCCC2,-18.4%
Cn1c(=O)c2c(nc(N3CCN(CCO)CC3)n2CCSc2nc3ccccc3s2)n(C)c1=O,8.6%
Oc1c(C(c2ccccc2)N2CCC(O)CC2)sc2ncnn12 (stereo unspecified),-0.9%
Cn1c(Cn2c(=O)sc3ccccc32)nnc1SCC(=O)Nc1ccc(F)cc1,-1.3%
CC1CCCN(C(c2ccco2)c2sc3ncnn3c2O)C1 (stereo unspecified),-4.6%
CCCC(=O)Nc1nc2ccc(C(=O)OCC)cc2s1,29.4%
Cc1ccc(C)c(S(=O)(=O)Nc2cc3c4c(c2)CCC(=O)N4CCC3)c1,1.2%
Cc1cc(=O)n2c3ccccc3n(CC(O)CNc3ccc(Br)cc3)c2c1C#N (stereo unspecified),8.8%
O=C(/C=C\c1ccccc1)N1CCN(c2ncnc3c2nnn3Cc2ccccc2)CC1,7.0%
Fc1ccc(N2CCN(c3ncnc4c3cnn4-c3ccccc3)CC2)cc1,1.2%
Cc1cccc(Cn2cc(SCC(N)=O)c3ccccc32)c1,5.1%
COC(=O)c1ccc(CSc2ncnc3c2nnn3Cc2ccccc2)o1,11.1%
Cc1ccc(N2C(=O)C3N=NN(CC(=O)Nc4ccccc4F)C3C2=O)cc1C (stereo unspecified),-16.4%
O=C(Cn1cc(C(=O)c2ccccc2)c(=O)c2ccccc21)Nc1ccc2c(c1)OCO2,-3.6%
COc1ccc(-c2cc(C3CC3)nc3sc4c(c23)NC(c2ccc(OC)cc2)NC4=O)cc1 (stereo unspecified),4.5%
Clc1ccc(Cl)c2sc(N3CCN(c4nc5c(Cl)ccc(Cl)c5s4)CC3)nc12,-5.5%
Cc1cc2oc(-c3ccc(Cl)cc3)cc(=NCCC(=O)O)c2cc1C,0.9%
CC(=O)N1CCc2c(sc(NC(=O)CCSc3ccccc3)c2C(N)=O)C1,-14.1%
O=C(O)c1cc(-c2ccc(-c3ccccc3F)o2)nc2ccc(F)cc12,57.1%
CCCCOc1ccc(C(=O)Nc2nnc(-c3ccccc3C)s2)cc1,9.6%
COc1nn(C)cc1C(=O)Nc1ccc(C)c(C)c1,1.1%
COc1cc(-c2nnc(NC(C)=O)o2)cc(OC)c1OC,-2.6%
Nn1c(SCC(=O)Nc2ccc([N+](=O)[O-])cc2)nncc1=O,-8.0%
Nc1nc(SCC(=O)N2CCN(c3ccccc3)CC2)[nH]c(=O)c1NC(=O)c1ccccc1F,-1.1%
Cc1cccc(NC(=O)CSc2nc3c(c(=O)n2C)SC(C)C3)c1C (stereo unspecified),12.2%
N#Cc1c(NC(=O)c2cc(Cl)cc(Cl)c2)sc2c1CCN(Cc1ccccc1)C2,2.8%
COc1cccc(NC(=O)CSc2nc(-c3ccc([N+](=O)[O-])cc3)nc3c2c(=O)n(C)c(=O)n3C)c1,-5.5%

# Next part.
canonical_smiles,Mtb H37Rv
CCCCN(C)S(=O)(=O)c1ccc(C(=O)Nc2nc3c(ccc4ccccc43)s2)cc1,0.7%
CCOC(=O)c1oc2ccccc2c1NC(=O)COc1ccccc1C,8.3%
Cc1c(C(=O)Nc2c(C(=O)Nc3ccccc3)oc3ccccc23)cccc1[N+](=O)[O-],-1.0%
Cc1ccc(-n2ncc3c(NCCc4ccc(S(N)(=O)=O)cc4)ncnc32)cc1C,51.2%
O=C(/C=C/c1ccccc1Cl)Nc1nc(-c2nc3ccccc3s2)cs1,-0.7%
Cc1ccc(NC(=O)c2cnc3n(c2=O)CCS3)cc1,-4.4%
O=C(/C=C1\SC(=O)N(CC(=O)Nc2ccccc2)C1=O)Nc1ccc(Cl)cc1,-2.2%
Cc1ccc(C(=O)c2cn(Cc3cccc(F)c3)c3cc4c(cc3c2=O)OCO4)cc1,83.7%
CCN1CCc2c(sc(NC(=O)c3ccc(C)cc3)c2C(N)=O)C1,5.0%
Cc1cccc(-n2nc3c(c2NC(=O)c2ccc(Br)o2)CS(=O)C3)c1C (stereo unspecified),7.6%
O=C(NCc1ccncc1)C(=O)Nc1cc2c3c(c1)CCN3C(=O)CC2,-7.0%
CNc1nc2c(c(=O)n(C)c(=O)n2C)n1CCSc1nc2ccccc2s1,-3.0%
COc1cccc(C(=O)Nc2sc3c(c2C(N)=O)CC(C)CC3)c1 (stereo unspecified),1.8%
Cc1ccc(-c2csc3ncn(CC(=O)NCc4ccco4)c(=O)c23)cc1C,38.2%
CCOc1ccc(C(=O)Nc2c(N)nc(SCC(=O)Nc3ccc4c(c3)OCO4)[nH]c2=O)cc1,-3.1%
Cc1ccc(-c2nnn3c2nc(NC2CCCC2)c2ccccc23)cc1,-0.1%
Cc1ccc(C(=O)NCCSc2ncc(-c3ccccc3)[nH]2)cc1C,20.2%
CCOC(=O)c1nn(-c2ccccc2)c(=O)c2c(NC(=O)CSCc3ccccc3)scc12,-1.6%
CC(C)Oc1ccc(C(=O)Nc2nnc(-c3ccc(F)cc3)s2)cc1,1.6%
CC1CCCN(S(=O)(=O)c2ccc(C(=O)Nc3sc4c(c3C#N)CCCCC4)cc2)C1 (stereo unspecified),41.1%
Cc1nnc(SCC(=O)Nc2ncc(Cc3ccc(Br)cc3)s2)n1N,4.2%
Cc1ccc(C)c(NC(=O)CSc2nc3c(oc4ccccc43)c(=O)n2Cc2ccc(F)cc2)c1,-6.3%
O=C(Nc1nnc(-c2cccs2)o1)c1cccc(Oc2ccccc2)c1,82.0%
COc1cccc(OCC(=O)NC2CC(=O)N(c3ccc(C)c(C)c3)C2)c1 (stereo unspecified),0.6%
CCCC(C)C1C(C#N)=C(N)OC2=C1C(=O)CC(C)(C)C2 (stereo unspecified),16.5%
CC(=O)c1cccc(Nc2nc(-c3cccc(C)c3)nc3ccccc23)c1,25.2%
CC(=O)Cc1nsc(NC(=O)c2oc3ccc(C)cc3c2C)n1,0.1%
COc1ccc(C(=O)Nc2nnc(C34CC5CC(CC(C5)C3)C4)s2)c(OC)c1,1.8%
Cc1ccccc1C1C2=C(COC2=O)Nc2c1c(=O)[nH]c(=O)n2C (stereo unspecified),7.7%
O=C(CCCN1C(=O)/C(=C/c2ccco2)SC1=S)Nc1ccccc1C(=O)O,-3.6%
COc1ccc(C(=O)N(CCCn2ccnc2)c2nc3c(C)c(C)ccc3s2)cc1OC,14.2µg/mL*
CN(c1ccccc1)S(=O)(=O)c1ccc(C(=O)Nc2sc3c(c2C(N)=O)CCCC3)cc1,55.6%
O=C(Oc1coc(CSc2ncccn2)cc1=O)c1ccccc1,2.4%
Cn1c(SCc2ccccn2)ncc(C(=O)Nc2ccc(Cl)cc2)c1=O,-5.5%
CCCSc1nc2c(c(=O)[nH]1)C(c1cccnc1)C1=C(CCCC1=O)N2 (stereo unspecified),-1.3%
Cn1ncc2c(Nc3ccc(Cl)cc3Cl)ncnc21,4.6%
Cc1ccc(C)c(NC(=O)CN2N=NC3C(=O)N(c4ccc(C)c(C)c4)C(=O)C32)c1 (stereo unspecified),-13.5%
COCc1nnc(NC(=O)c2ccc(C(C)(C)C)cc2)s1,70.3%
CCCCc1ccc2nc(Nc3nc4ccc5sc(C)nc5c4s3)sc2c1,15.2%
Cc1c(Cl)cccc1NC(=O)c1c[nH]c(=O)n(-c2ccccc2)c1=O,-2.4%
COc1cc(NS(=O)(=O)c2ccc(N3C(=O)c4ccc(C(=O)O)cc4C3=O)cc2)nc(OC)n1,0.9%
COc1ccc(C(=O)Nc2c(N)nc(SC(C(C)=O)C(C)=O)[nH]c2=O)cc1OC,-8.5%
O=C(NN1C(=O)/C(=C/c2cccc(O)c2)SC1=S)c1cccnc1,-14.4%
CC(C)c1ccc(-c2nc(C(N)=O)c3[nH]c(=O)n(-c4ccc(F)cc4)c3n2)cc1,5.8%
O=C(Nc1nnc(-c2cccs2)o1)c1ccc2c(c1)CCCC2,37.6µg/mL*
CCn1c(=O)c2c(nc3n(-c4ccc(OC)c(Cl)c4)c(C)cn23)n(C)c1=O,-6.3%
CC(=O)Nc1nc(SCC(=O)NC2CCCCC2)[nH]c(=O)c1NC(=O)c1cccs1,-10.7%
Cc1cc(NC(=O)Cn2cnc3c(cnn3-c3cccc(Cl)c3)c2=O)no1,0.4%
COc1cccc2sc(Nc3nc4c(s3)CCCC4)nc12,5.82µg/mL*
CCCS(=O)(=O)N1CCN=C1SCc1ccc([N+](=O)[O-])cc1,9.6%

# Structural class, the entries above with bromine
canonical_smiles,Mtb H37Rv
Cc1ccc(C)c(NC(=O)CSc2nc(N)c(NC(=O)c3ccc(Br)cc3)c(=O)[nH]2)c1,1.0%
CC1CCc2sc(NC(=O)c3ccccc3Br)c(C(N)=O)c2C1 (stereo unspecified),10.9%
Cc1cc(=O)n2c3ccccc3n(CC(O)CNc3ccc(Br)cc3)c2c1C#N (stereo unspecified),8.8%
Cc1cccc(-n2nc3c(c2NC(=O)c2ccc(Br)o2)CS(=O)C3)c1C (stereo unspecified),7.6%
Cc1nnc(SCC(=O)Nc2ncc(Cc3ccc(Br)cc3)s2)n1N,4.2%

# Additional compounds
canonical_smiles,Mtb H37Rv
Cc1c(Cl)cccc1NC(=O)C(=O)Nc1cc2c3c(c1)CCC(=O)N3CCC2,8.0%
Cc1c(C(=O)Oc2coc(CSc3nnc(NC(=O)C4CC4)s3)cc2=O)cccc1[N+](=O)[O-],-3.5%
Cn1c(=O)c2c(nc3n2CCN(CCc2ccccc2)C3)n(C)c1=O,9.9%
Cc1ccc(NC(=O)CSc2ccc3nnc(-c4ccc(Cl)cc4)n3n2)cc1,-10.8%
CCOC(=O)c1nn(-c2ccc(OC)cc2)c(=O)c2c(NC(=O)c3ccc4c(c3)OCO4)scc12,6.5%
CCCC(=O)Nc1nc2ccc(OC)cc2s1,1.6%
O=C(Nc1ccc(Cl)cc1)c1csc2c1CCCC2,5.0%
CCOC(=O)N1CCN(C(=O)c2ccc(NC3=NC4CS(=O)(=O)CC4S3)cc2)CC1 (stereo unspecified),-6.6%
Cn1c(=O)[nH]c(=O)c2c1nc(N1CCN(Cc3ccc(F)cc3)CC1)n2C/C=C/c1ccccc1,-15.5%
CCn1cc(C(=O)Nc2cccc(C(F)(F)F)c2)c2nn(-c3ccccc3)c(=O)c-2c1,1.9%
CCCCN1C(=O)c2cccc3c(NC(=O)c4cc(=O)c5ccccc5o4)ccc1c23,7.1%
CCOc1ccccc1-n1c(=O)[nH]c2c(C(N)=O)nc(-c3ccccc3)nc21,-0.3%
COc1ccc(OC)c2[nH]c(=O)c(CCNC(=O)c3c(F)cccc3Cl)cc12,-0.1%
COc1ccccc1CNc1nc2c(-c3cccc(C)c3)nnn2c2ccccc12,-4.2%
Cc1ccnc(NCN2C(=O)c3ccncc3C2=O)c1,1.5%
CCS(=O)(=O)Nc1ccc2c(c1)N(C(C)=O)CCC2,0.7%
COc1ccc(N2C(=O)C3N=NN(CC(=O)Nc4ccccc4Cl)C3C2=O)cc1 (stereo unspecified),-10.8%
CC(C(=O)Nc1nc2ccc([N+](=O)[O-])cc2s1)N1C(=O)c2ccccc2S1(=O)=O (stereo unspecified),-5.3%
Cc1c(NC(=S)NCCc2ccccc2)c(=O)n(-c2ccccc2)n1C,0.9%
Cc1ccc(-n2c(SCC(=O)Nc3ccc(F)cc3)nc3c(c2=O)SCC3)cc1,10.0%
